# Source: PubChem BioAssay (several laboratories)
# CSC inhib: cancer stem cell inhibition; cancer stem cell-like cells viability, luminescence; inhibition, % at 7.5 µM; 1.1% of 300,000 active;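 active means mean at 75% or more and at least half the replicates too; tested in HMLE shEcad cells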;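 further: 0% = median of negative and 100% = median of positive control wells; the first replicate is given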
# Rce1 inhib: inhibitors of yeast Ras-converting enzyme; AID 2563; yeast membranes, quenched prenylated peptide cleavage fluorescence; calls only; Q03530; 0.27% of 290,000 active;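 active means fall in fluorescence gain of 50% or more versus controls, with final raw signal at or below 3038400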;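 further: plate controls were neutral control wells for no effect and wells lacking membranes for full effect; tested at 10 µM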
# Target sequence (Q03530 whole entry, looked up): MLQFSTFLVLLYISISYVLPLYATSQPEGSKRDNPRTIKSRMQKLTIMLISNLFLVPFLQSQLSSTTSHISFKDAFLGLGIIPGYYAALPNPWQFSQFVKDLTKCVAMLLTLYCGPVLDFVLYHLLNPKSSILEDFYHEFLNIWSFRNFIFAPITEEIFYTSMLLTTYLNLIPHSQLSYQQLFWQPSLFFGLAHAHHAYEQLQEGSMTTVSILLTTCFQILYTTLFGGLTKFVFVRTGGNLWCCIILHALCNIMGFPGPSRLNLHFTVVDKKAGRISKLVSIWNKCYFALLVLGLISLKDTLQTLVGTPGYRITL
# MT1-MMP act inh: inhibitors of human MT1-MMP activation; HT1080 RFP-PRO-GFP cells, GFP/RFP ratio fluorescence, overnight; percent of plate control window, DMSO zero; GFP/RFP ratio change, % at 20 µM; 0.061% of 360,000 active;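 active means GFP/RFP ratio change of at least 30% with cell ATP level not reduced by more than half and red fluorescence within 50% of control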; further: strong numbers were not always called active
#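 Material: RFP-PRO-GFP reporter HT1080 cells. Dosing: single-point 20 µM compound, 1% DMSO. Controls: DMSO and RFP-L50D-GFP cell wells. Timing: cells overnight before dosing, compound overnight, 37 °C, 5% CO2. Measure: GFP/RFP fluorescence ratio.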
# UUG fidelity: alters start codon recognition fidelity in yeast. S. cerevisiae UUG-firefly luciferase reporter, luminescence/redox ratio. activity score, % at 18.7 µM. 0.13% of 350,000 active. AID 602363;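 active means replicate mean at a twofold rise or more, about +100% in these data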;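 further: firefly luciferase made from a UUG start codon reports start codon fidelity; reporter light over untreated wells divided by growth signal over untreated wells; some hits fall short of that in this replicate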
# eIF4H FP inh: inhibitors of RNA binding by human eIF4H | inhibition, % at 35 µM | 0.94% of 290,000 active | AID 2012 | eIF4H fluorescence polarization binding assay;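 active means 50% or more with normal probe brightness, or confirmed in later tests; about a fifth of its hits are not listed in these tables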;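 further: calls also rest on retests at 20 µM and on dose response follow-up; 0% = protein and probe with vehicle and 100% = probe without protein; strong numbers were not always called active; many hits fall short of the cut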
# PABP FP inh: blocks human PABP binding to poly(A) RNA; P11940; fluorescence polarization; inhibition, % at 35 µM; 1% of 290,000 active;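 active means 50% or more with normal probe brightness, or confirmed in later tests; about a fifth of its hits are not listed in these tables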;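 further: calls also rest on retests at 20 µM and on dose response follow-up; controls were probe without protein and protein plus probe with vehicle; some compounds called inactive have numbers as strong as hits; many hits fall short of the cut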
# Target sequence (P11940 whole entry, looked up): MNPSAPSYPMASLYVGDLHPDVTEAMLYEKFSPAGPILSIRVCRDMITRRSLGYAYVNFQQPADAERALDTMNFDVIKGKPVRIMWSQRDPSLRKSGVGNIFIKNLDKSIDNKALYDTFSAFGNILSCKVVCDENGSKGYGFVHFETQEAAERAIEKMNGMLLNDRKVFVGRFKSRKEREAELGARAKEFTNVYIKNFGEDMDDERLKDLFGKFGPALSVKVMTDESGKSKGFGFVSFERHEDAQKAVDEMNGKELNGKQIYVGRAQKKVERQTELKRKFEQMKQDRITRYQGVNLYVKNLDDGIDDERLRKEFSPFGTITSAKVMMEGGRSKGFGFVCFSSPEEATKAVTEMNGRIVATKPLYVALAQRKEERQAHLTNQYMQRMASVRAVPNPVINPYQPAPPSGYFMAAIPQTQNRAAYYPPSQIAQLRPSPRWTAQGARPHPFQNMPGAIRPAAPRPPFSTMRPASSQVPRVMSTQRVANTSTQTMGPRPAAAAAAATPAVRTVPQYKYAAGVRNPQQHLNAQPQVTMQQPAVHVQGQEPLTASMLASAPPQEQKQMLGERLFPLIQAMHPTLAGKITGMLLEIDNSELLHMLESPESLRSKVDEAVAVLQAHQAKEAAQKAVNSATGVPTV
# HIV Env fusion: blocks HIV Env-driven cell-cell fusion. 1.1% of 360,000 active. HeLa-JRFL Env/CEM21 cell fusion, luciferase. inhibition, % at 12.3 µM;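 active means mean replicate inhibition score of at least 50 and every replicate individually at or above 50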;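 further: 0% = plate neutral controls and 100% = maraviroc near 300 nM; one replicate is shown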
# eIF4H FP inh retest: second read-out of eIF4H FP inh, no call of its own (marks repeat the call); inhibition, %; compound at 20 µM; confirmation average;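 mean of two retest wells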
# PABP FP inh retest: further read-out of PABP FP inh, marked with its call; inhibition, %; compound at 20 µM; confirmation repeats;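 mean of two retest wells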
# MT1-MMP act inh RFP: also measured in MT1-MMP act inh; calls as there; RFP signal change, %; measured here: RFP expression control read;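 0 = vehicle wells; hits needed this value within 50% of zero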
# Starred values were filed as active, the others as inactive; i = inactive; . = not tested or not shown.
SMILES,CSC inhib,Rce1 inhib,MT1-MMP act inh,MT1-MMP act inh RFP,UUG fidelity,eIF4H FP inh,PABP FP inh,HIV Env fusion,others
c1ccc(-c2cc(-c3ccc(N4CCOCC4)cc3)nc3ccccc23)cc1,45,i,-1,2,3,1,-10,-58,
COc1cc(/C=C/CN2CCN(CCC(C)C)C(CCO)C2)ccc1O (stereo unspecified),15,i,0,3,.,5,-2,-3,
C#CCn1c(=NC(=O)c2ccc(Br)s2)sc2cccc(OC)c21,9,i,-6,-6,-12,-11,-11,i,
Cc1nn(-c2ccc(C(F)(F)F)cn2)c(C)c1Oc1ccccc1O,-10,i,-5,-6,.,1,2,.,
CCOC(=O)c1sc2nccc(N(C)C)c2c1N=CN(C)C,-10,i,11,-5,-18,-9,1,.,
O=C(CCCn1c(=O)c2sccc2n(Cc2cc(=O)n3ccccc3n2)c1=O)NCc1ccco1,-8,i,-2,1,-8,-5,-4,-35,
COc1ccc(CN2C(=O)CCC2(C)C(=O)NC2CCCCC2)c(OC)c1 (stereo unspecified),15,i,-1,1,-4,-6,1,-52,
CCc1cccc2c(C(=O)CN3C(=O)NC4(CCc5ccccc54)C3=O)c[nH]c12 (stereo unspecified),-6,i,9,9,-7,.,.,13,
CCOC(=O)/C(=C/c1c[nH]c2ccccc12)NC(C)=O,-4,i,-1,-3,-20,-9,2,-35,
CC(O)CNc1nc(NCc2ccccc2)c2cnn(C)c2n1 (stereo unspecified),-5,i,-1,3,-7,-3,-1,5,
CCCCOc1ccc(OCCNS(=O)(=O)N(C)C)cc1,10,i,-1,-8,7,0,2,.,
CCOC(=O)c1sc(=S)n(C)c1NC(=O)c1ccc(F)cc1,.,i,-2,-1,-7,2,3,8,
CC(=O)Nc1ccccc1-c1nc2ccccc2nc1OCC(=O)c1ccc(Br)cc1,-6,i,-5,-1,-4,-6,-2,-31,
Cc1ccc(-n2cccc2/C=C2/C(=N)N3C(=NC2=O)SN=C3S(C)(=O)=O)cc1,12,i,-13,2,.,50,4,-38,eIF4H FP inh retest=47;PABP FP inh retest=38
CC(=O)Nc1ccc(OCC=C(Cl)Cl)cc1,.,i,11,1,-9,-14,5,.,
Cc1cccc(C)c1N(CC(=O)Nc1cc(Cl)ccc1Oc1ccccc1)S(C)(=O)=O,-9,i,-14,-13,-14,-13,-8,.,
CCC(C)NC(=O)CN1c2cccc3cccc(c23)S1(=O)=O (stereo unspecified),.,i,2,5,-20,10,14,2,
N#CCCN(C(=O)COC(=O)COc1ccc(Cl)cc1)c1ccccc1,-2,i,-1,2,.,-2,13,1,
CCN(CC)CCNC(=O)Cc1nn(CC)c(=O)c2ccccc12,-7,i,13,-1,-1,3,-2,.,
CCOC(=O)c1ccc2c(c1)n(CCO)c(C)[n+]2CC,-8,i,-5,3,-5,.,.,-11,

# Ordered by count of non-hydrogen atoms (descending): 13 of the compounds above.
SMILES,CSC inhib,Rce1 inhib,MT1-MMP act inh,MT1-MMP act inh RFP,UUG fidelity,eIF4H FP inh,PABP FP inh,HIV Env fusion,others
O=C(CCCn1c(=O)c2sccc2n(Cc2cc(=O)n3ccccc3n2)c1=O)NCc1ccco1,-8,i,-2,1,-8,-5,-4,-35,
CC(=O)Nc1ccccc1-c1nc2ccccc2nc1OCC(=O)c1ccc(Br)cc1,-6,i,-5,-1,-4,-6,-2,-31,
CCc1cccc2c(C(=O)CN3C(=O)NC4(CCc5ccccc54)C3=O)c[nH]c12 (stereo unspecified),-6,i,9,9,-7,.,.,13,
c1ccc(-c2cc(-c3ccc(N4CCOCC4)cc3)nc3ccccc23)cc1,45,i,-1,2,3,1,-10,-58,
COc1ccc(CN2C(=O)CCC2(C)C(=O)NC2CCCCC2)c(OC)c1 (stereo unspecified),15,i,-1,1,-4,-6,1,-52,
COc1cc(/C=C/CN2CCN(CCC(C)C)C(CCO)C2)ccc1O (stereo unspecified),15,i,0,3,.,5,-2,-3,
Cc1nn(-c2ccc(C(F)(F)F)cn2)c(C)c1Oc1ccccc1O,-10,i,-5,-6,.,1,2,.,
CCN(CC)CCNC(=O)Cc1nn(CC)c(=O)c2ccccc12,-7,i,13,-1,-1,3,-2,.,
C#CCn1c(=NC(=O)c2ccc(Br)s2)sc2cccc(OC)c21,9,i,-6,-6,-12,-11,-11,i,
CCOC(=O)c1sc(=S)n(C)c1NC(=O)c1ccc(F)cc1,.,i,-2,-1,-7,2,3,8,
CCCCOc1ccc(OCCNS(=O)(=O)N(C)C)cc1,10,i,-1,-8,7,0,2,.,
CCOC(=O)c1ccc2c(c1)n(CCO)c(C)[n+]2CC,-8,i,-5,3,-5,.,.,-11,
CC(=O)Nc1ccc(OCC=C(Cl)Cl)cc1,.,i,11,1,-9,-14,5,.,

# (further entries)
SMILES,CSC inhib,Rce1 inhib,MT1-MMP act inh,MT1-MMP act inh RFP,UUG fidelity,eIF4H FP inh,PABP FP inh,HIV Env fusion,others
Cc1cccc(Cl)c1NC(=O)N1CCCN(c2nc3ccc(Cl)cc3s2)CC1,5,i,-2,-34,-4,4,-6,10,
Cc1ccc(S(=O)(=O)N(C)C)cc1NC(=O)CSc1ncn[nH]1,-13,i,0,4,-2,-7,6,.,
CC(CO)Nc1nc(SCc2ccccc2)nc2sc3c(c12)CCC3 (stereo unspecified),1,i,4,-5,-12,11,-9,6,
Cc1ccccc1C(OCC(O)CN1CCC(C(N)=O)CC1)c1ccccc1 (stereo unspecified),-7,i,-1,-4,-17,-5,-2,-4,
CC(C)[C@H](NS(=O)(=O)/C=C/c1ccccc1)C(=O)OCC(=O)NC(N)=O,2,i,-3,1,.,2,8,-4,
COc1ccc(CCNC(=O)c2cc([N+](=O)[O-])ccc2N2CCOCC2)cc1,17,i,-6,-4,.,.,.,-18,
CN1CCN(/N=C/c2nc(-c3cccc([N+](=O)[O-])c3)n3ccccc23)CC1,-12,i,1,3,.,24,2,2,
Cc1ccc(C(=O)CSc2nnc(-c3ccco3)n2CC2CCCO2)cc1 (stereo unspecified),-1,i,2,3,-12,-7,-8,.,
O=C(CCC(=O)N1CCOCC1)NCCc1ccc(F)cc1,1,.,-3,5,-19,.,.,7,
COc1ccnc(N=CNOCc2ccc(F)cc2Cl)c1C#N,-1,i,-2,-2,.,1,-6,.,
O=C(Nc1ccc2ccccc2c1)c1ccc2[nH]c(=O)c(=O)[nH]c2c1,.,i,4,2,-16,6,26,11,
COC(=O)c1ccc(OC(=O)c2ccccc2F)cc1,-6,i,.,.,.,-2,1,-59,
Cn1nc(-c2ccc(OCC(=O)Nc3cccnc3)cc2)c2ccccc2c1=O,6,i,9,-2,-7,-4,6,17,
CCOC(=O)C1CCN(Cc2nc3ccccc3c(=O)n2-c2ccc(OCC)cc2)CC1,.,i,0,-2,-16,3,-2,-36,
Cc1cc(C)cc(OCC(=O)Nc2ccccc2C(=O)N2CCOCC2)c1,-16,i,3,1,-7,-11,12,-3,
CN(C(=O)c1cccc(C(=O)N(C)c2ccccc2)c1)c1ccccc1,-8,i,6,0,-6,3,0,8,
CC(C)[C@H](NC(=O)c1ccco1)C(=O)OCC(=O)NC12CC3CC(CC(C3)C1)C2,-12,i,-1,-1,-6,-4,4,-2,
O=C(CN1c2cccc3cccc(c23)S1(=O)=O)Nc1cccc(S(=O)(=O)N2CCOCC2)c1,-13,i,0,-1,-8,10,1,5,
O=S1(=O)CC(N2CCN(CCO)CC2)CN1Cc1ccccc1 (stereo unspecified),.,.,2,2,-12,.,.,4,
CN(CC(=O)NCc1ccco1)CC(=O)Nc1cc(S(C)(=O)=O)ccc1Cl,.,.,5,2,-13,.,.,3,

# Brought forward from above: two compounds, then new ones.
SMILES,CSC inhib,Rce1 inhib,MT1-MMP act inh,MT1-MMP act inh RFP,UUG fidelity,eIF4H FP inh,PABP FP inh,HIV Env fusion,others
O=S1(=O)CC(N2CCN(CCO)CC2)CN1Cc1ccccc1 (stereo unspecified),.,.,2,2,-12,.,.,4,
CN(CC(=O)NCc1ccco1)CC(=O)Nc1cc(S(C)(=O)=O)ccc1Cl,.,.,5,2,-13,.,.,3,
COc1ccc(C(=O)NCC(=O)OCC(=O)Nc2ccc(C)c(S(=O)(=O)N(C)C)c2)cc1OC,-5,i,3,2,4,-3,7,7,
O=C(Nc1nc2ccsc2c(=O)s1)c1ccc(F)cc1Cl,-3,i,1,1,-20,26,-6,-51,
COC(=O)c1ccccc1NC(=O)N1CCc2ccc(NC(=O)c3ccccn3)cc2C1,-15,i,2,-2,-17,-3,-5,-38,
Cc1ccc2[nH]c3c(NCCN4CCOCC4)ncnc3c2c1,.,i,10,0,-19,10,6,11,
CCn1c2ccccc2c(=O)c2ccccc21,3,i,-5,-5,-25,-14,45,-17,
CCOC(=O)c1nn(-c2ccccc2)c(=O)cc1SC1CCCCC1,1,i,-8,-3,.,-8,2,8,
O=C(Nc1ccc(Cl)cc1)c1csc(-c2ccccc2)n1,14,i,6,-2,-17,-2,-7,-44,
Cc1ccc(CN(C)C(=O)CCc2c[nH]c3ccccc23)o1,4,.,0,0,-6,-17,4,-14,
O=C(Nc1c(C(=O)N2CCC(N3CCCCC3)CC2)oc2ccccc12)c1c(F)cccc1F,-14,i,1,3,12,-8,-12,0,
COC(=O)c1ccc(CN2CCC(CO)(Cc3ccc(OC)cc3)CC2)cc1,9,i,-6,-1,-11,-1,-3,7,
COc1ccc(OC)c(S(=O)(=O)NCc2cn3c(C)csc3n2)c1,-17,i,6,8,-16,-5,8,-175,
Cc1ccc(C(=O)Nc2ccccc2N2CCCCC2)cc1[N+](=O)[O-],.,i,-3,-15,-11,-4,15,27,
COCCn1c(SCC(=O)Nc2ccc(OC)cc2)nc2c(oc3ccccc32)c1=O,-5,.,.,.,.,-1,-6,.,
O=C(OC1CCCCC1)c1ccc(NC(=O)C2CCCCC2)cc1,0,i,-1,-15,.,-2,-14,.,
N#C/C(=C/c1cccn1-c1cccc(C(=O)O)c1)c1ccc(F)cc1,.,i,-1,4,.,25,21,6,
COc1ccccc1NS(=O)(=O)c1ccc(C)c(C(=O)N2CCN(c3ccc(O)cc3)CC2)c1,14,.,3,1,.,.,.,4,
CCc1nc(SCC(=O)NCc2ccco2)c2c(=O)n(C)c(=O)n(C)c2n1,-9,i,-5,1,-10,0,8,-24,
CCC(C)n1c(/C=C/c2ccccc2)nc2ccccc21 (stereo unspecified),4,i,-7,-4,-11,-6,-12,0,
CCc1ccc(C(=O)N2CCN(S(=O)(=O)c3sc(C(=O)O)c(C)c3C(=O)O)CC2)cc1,.,.,-2,-2,6,.,.,3,
CCN(CC(=O)Nc1c(F)cccc1F)C(=O)C1CCN(c2ncnc3sc(C)c(C)c23)CC1,0,i,-10,-10,.,.,.,16,
